KCNQ2 inh: KCNQ2 potassium channel inhibitors, primary screen, cell-based, CHO-K1, FluxOR thallium flux, B-score (AID 2156) | 20 min; hits give low values; only compounds with negative scores are shown here; some inactives read as strong as hits | 310,000 tested, 1.1% active | B-score at 10 µM;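 active = fluorescence ratio B-score at most minus 3 library SDs, with starting brightness B-score within 2 library SDs, cut at about -5.5 in these data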
Target sequence (O88943 whole entry, looked up): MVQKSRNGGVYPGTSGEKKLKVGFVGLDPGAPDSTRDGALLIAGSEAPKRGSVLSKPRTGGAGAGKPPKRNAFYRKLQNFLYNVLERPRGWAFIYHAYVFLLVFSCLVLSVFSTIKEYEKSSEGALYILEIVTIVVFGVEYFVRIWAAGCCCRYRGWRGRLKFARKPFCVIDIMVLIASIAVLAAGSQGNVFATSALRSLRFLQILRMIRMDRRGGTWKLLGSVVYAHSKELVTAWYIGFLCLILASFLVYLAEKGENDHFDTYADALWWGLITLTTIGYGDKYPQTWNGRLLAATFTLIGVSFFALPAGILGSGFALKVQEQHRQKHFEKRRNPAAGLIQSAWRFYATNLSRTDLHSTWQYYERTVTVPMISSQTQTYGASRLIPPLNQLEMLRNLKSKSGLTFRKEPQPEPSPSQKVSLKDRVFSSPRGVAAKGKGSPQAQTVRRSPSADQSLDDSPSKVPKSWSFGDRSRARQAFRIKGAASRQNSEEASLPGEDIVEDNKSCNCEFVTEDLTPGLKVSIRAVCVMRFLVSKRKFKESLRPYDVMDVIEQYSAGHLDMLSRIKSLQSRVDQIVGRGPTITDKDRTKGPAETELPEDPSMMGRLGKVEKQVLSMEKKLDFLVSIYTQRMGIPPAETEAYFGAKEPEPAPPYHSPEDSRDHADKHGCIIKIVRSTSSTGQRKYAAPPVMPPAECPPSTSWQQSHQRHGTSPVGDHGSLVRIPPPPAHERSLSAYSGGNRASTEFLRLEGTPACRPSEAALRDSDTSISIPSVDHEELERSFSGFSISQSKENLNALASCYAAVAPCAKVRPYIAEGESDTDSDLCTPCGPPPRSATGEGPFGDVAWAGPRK
KCNQ2 inh baseline: second read-out of KCNQ2 inh, no call of its own (marks repeat the call); B-score; measured here: initial fluorescence intensity artifact check;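 brightness before thallium and not channel activity; 0 = typical well and far values either way flag optical interference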
Numbers without * were called inactive. Some of the compounds tested, so the mix of outcomes need not match the whole.

Results for Cc1cc(/C=C2/NC(=O)NC2=O)c(C)n1-c1ccccn1 ?
KCNQ2 inh: inactive; KCNQ2 inh baseline: -0.03

How did Cc1ccc(NC2=NCC(=O)N2Cc2ccc3c(c2)OCO3)c(C)c1 do in these assays?
KCNQ2 inh: inactive; KCNQ2 inh baseline: -0.06

What do the screens show for `CC(C(=O)O)c1ccc(CC2CCCC2=O)cc1` (stereo not drawn)?
KCNQ2 inh: inactive; KCNQ2 inh baseline: 2.4

How did COc1ccc(-c2sc(C(=O)c3ccc(Cl)cc3Cl)cc2CC(=O)O)cc1 do in these assays?
KCNQ2 inh: inactive; KCNQ2 inh baseline: -1.8

What do the screens show for `Cc1ccc(C(=O)Nc2cc(C(F)(F)F)ccc2N2CCCCC2)cc1[N+](=O)[O-]`?
KCNQ2 inh: -7.2*; KCNQ2 inh baseline: 0.02*

How did O=C(Nc1nnc(C2=COCCO2)o1)c1ccc([N+](=O)[O-])s1 do in these assays?
KCNQ2 inh: inactive; KCNQ2 inh baseline: 1.5

What do the screens show for `COc1ccc(CCC(=O)Nc2ccc(S(=O)(=O)N3CCOCC3)cc2)cc1`?
KCNQ2 inh: inactive; KCNQ2 inh baseline: -0.05

Results for CNc1nn(-c2cccc(Cl)c2)nc1N ?
KCNQ2 inh: inactive; KCNQ2 inh baseline: 0.48

What do the screens show for `CC(=O)NC1=NN(C(C)=O)C(C)(c2cccnc2)S1` (stereo not drawn)?
KCNQ2 inh: inactive; KCNQ2 inh baseline: 0.53

How did CC(C)COC(=O)c1nnsc1NC(=O)Nc1ccccc1 do in these assays?
KCNQ2 inh: inactive; KCNQ2 inh baseline: 0.9

What do the screens show for `CCOc1ccc(NC(=S)NC(=O)C2CCCC2)cc1`?
KCNQ2 inh: inactive; KCNQ2 inh baseline: -0.64

What do the screens show for `COc1cc(CN(C)CC(=O)c2[nH]c(C)c(C(C)=O)c2C)ccc1OC(F)F`?
KCNQ2 inh: inactive; KCNQ2 inh baseline: 1

How did CC(C)N1C(=O)c2ccccc2C1C(=O)NCCc1ccccc1 (stereo not drawn) do in these assays?
KCNQ2 inh: inactive; KCNQ2 inh baseline: -1.5

What do the screens show for `CC(=O)Nc1ccc(S(=O)(=O)NCCOc2ccc(Cl)cc2C)cc1`?
KCNQ2 inh: inactive; KCNQ2 inh baseline: -0.63

Results for Cc1ccc(S(=O)(=O)N(C)CC(=O)N/N=C/c2ccc(C)o2)cc1 ?
KCNQ2 inh: inactive; KCNQ2 inh baseline: -1.8

How did CN(c1ccccc1)S(=O)(=O)c1ccc(-c2ccccc2)cc1 do in these assays?
KCNQ2 inh: inactive; KCNQ2 inh baseline: 0.22

How did Cn1cc(SCC(=O)NC2CCCCC2)c2ccccc21 do in these assays?
KCNQ2 inh: inactive; KCNQ2 inh baseline: 1.2

Results for COc1cccc(CNC(=O)CSCc2cnn(-c3ccccc3)c2-n2cccc2)c1 ?
KCNQ2 inh: inactive; KCNQ2 inh baseline: 1.1

How did COc1cccc(NC(=O)c2nc(S(C)(=O)=O)ncc2Cl)c1 do in these assays?
KCNQ2 inh: inactive; KCNQ2 inh baseline: -2.8

What do the screens show for `CC(OC(=O)c1nn(C(C)C)c(=O)c2ccccc12)C(=O)Nc1ncc(Cl)cc1Cl` (stereo not drawn)?
KCNQ2 inh: inactive; KCNQ2 inh baseline: -0.06

Reprinted from the part before: 2 compounds; new compounds follow.
How did COc1cccc(NC(=O)c2nc(S(C)(=O)=O)ncc2Cl)c1 do in these assays?
KCNQ2 inh: inactive; KCNQ2 inh baseline: -2.8

What do the screens show for `CC(OC(=O)c1nn(C(C)C)c(=O)c2ccccc12)C(=O)Nc1ncc(Cl)cc1Cl` (stereo not drawn)?
KCNQ2 inh: inactive; KCNQ2 inh baseline: -0.06

What do the screens show for `CCOC(=O)c1c(C)[nH]c(C(=O)Cn2nnc(-c3ccc(Cl)cc3)n2)c1C`?
KCNQ2 inh: inactive; KCNQ2 inh baseline: 0.32

How did Cc1ccccc1Cn1nc(C)c(NC(=O)c2cc(-c3ccco3)on2)c1C do in these assays?
KCNQ2 inh: inactive; KCNQ2 inh baseline: 2.3

Results for CN(C)S(=O)(=O)N1CCc2ccc(NC(=O)C3CCCO3)cc2C1 (stereo not drawn) ?
KCNQ2 inh: inactive; KCNQ2 inh baseline: 1.4

What do the screens show for `Fc1ccc(N2CCN(C(=S)NCc3ccco3)CC2)cc1`?
KCNQ2 inh: inactive; KCNQ2 inh baseline: -0.88

What do the screens show for `CCC(C)NC(=O)CSc1nnc(-c2cc(OC)c(OC)c(OC)c2)c(-c2cc(OC)c(OC)c(OC)c2)n1` (stereo not drawn)?
KCNQ2 inh: inactive; KCNQ2 inh baseline: -0.27

Results for COC(=O)COc1ccc(S(=O)(=O)Nc2ccc(C(N)=O)cc2)cc1C ?
KCNQ2 inh: inactive; KCNQ2 inh baseline: 2.9

What do the screens show for `Cc1ccc(NC(=O)CN2C(=O)N/C(=C/c3ccc(N4CCOCC4)cc3)C2=O)cc1`?
KCNQ2 inh: inactive; KCNQ2 inh baseline: 0.44

What do the screens show for `CC(C)(C)c1ccc(S(=O)(=O)NCCc2ccncc2)cc1`?
KCNQ2 inh: inactive; KCNQ2 inh baseline: 0.32

How did O=C(NCCCn1ccnc1)NC(C(F)(F)F)C(F)(F)F do in these assays?
KCNQ2 inh: inactive; KCNQ2 inh baseline: 0.29

What do the screens show for `CC(C)[N+](C)(C)CC#CC(O)(c1ccccc1)c1ccccc1`?
KCNQ2 inh: inactive; KCNQ2 inh baseline: -0.03

How did Cc1ccc(NC(=O)CSCC(=O)Nc2cccc3ncccc23)cc1 do in these assays?
KCNQ2 inh: inactive; KCNQ2 inh baseline: 1.7

How did CCOc1ccc2[nH]c(=O)c(CN(CCO)Cc3nnnn3CCc3ccccc3)cc2c1 do in these assays?
KCNQ2 inh: inactive; KCNQ2 inh baseline: -2.6

How did CCSc1nc2c(c(=O)n1CC)SC(C)C2 (stereo not drawn) do in these assays?
KCNQ2 inh: inactive; KCNQ2 inh baseline: -0.74

Results for CC(=O)Nc1cccc(/C(C)=N/NC(=O)c2ccc(NS(=O)(=O)c3cccs3)cc2)c1 ?
KCNQ2 inh: inactive; KCNQ2 inh baseline: 0.67

What do the screens show for `Cc1ccc(C)c(OCc2nnc(SCC(=O)NCc3ccc4c(c3)OCO4)o2)c1`?
KCNQ2 inh: inactive; KCNQ2 inh baseline: -2.1

What do the screens show for `CC1(C)OC2OC(COC(=O)c3ccccc3)C3OC(C)(C)OC3C2O1` (stereo not drawn)?
KCNQ2 inh: inactive; KCNQ2 inh baseline: 0.42

What do the screens show for `Cc1ccc(NC(=O)Nc2ccc3c(c2)CCC3)cc1C`?
KCNQ2 inh: inactive; KCNQ2 inh baseline: -1.1

How did O=C(NCc1ccccc1C(F)(F)F)C12CN(Cc3ccccc3)CC1C(c1ccc([N+](=O)[O-])cc1)=NO2 (stereo not drawn) do in these assays?
KCNQ2 inh: inactive; KCNQ2 inh baseline: 0.09

How did NC(=O)NC(Cc1ccccc1)C(=O)NCC1(N2CCCCC2)CCCCC1 (stereo not drawn) do in these assays?
KCNQ2 inh: inactive; KCNQ2 inh baseline: -1.1

Results for CC1CN(CCOc2ccccc2C(C)C)CC(C)O1 (stereo not drawn) ?
KCNQ2 inh: inactive; KCNQ2 inh baseline: 0.96

Results for COc1ccc(C(=O)CSc2nnc(Cn3cnc4ccccc43)o2)cc1 ?
KCNQ2 inh: inactive; KCNQ2 inh baseline: 1.4

Results for O=C(NCCN1CCOCC1)C(=O)NCc1ccco1 ?
KCNQ2 inh: inactive; KCNQ2 inh baseline: -0.49

Results for CN1CCN(c2ccc(NC(=O)COc3ccc4ccccc4c3)cc2)CC1 ?
KCNQ2 inh: inactive; KCNQ2 inh baseline: 2.9

How did CCCNC(=O)c1ccc(N2CCC3(CC2)CC(c2ccccc2)=NO3)c(NC(=O)c2ccco2)c1 do in these assays?
KCNQ2 inh: inactive; KCNQ2 inh baseline: 0.78

What do the screens show for `CCn1c(=S)sc2c(=O)n(-c3ccccc3)c(SC)nc21`?
KCNQ2 inh: inactive; KCNQ2 inh baseline: 1.3

What do the screens show for `COc1cccc(N2CCN(C3CC(=O)N(c4ccc(F)c(Cl)c4)C3=O)CC2)c1` (stereo not drawn)?
KCNQ2 inh: inactive; KCNQ2 inh baseline: -0.37

How did CCOc1ccc(NC(=O)NNC(=O)c2ccc(CC)s2)cc1 do in these assays?
KCNQ2 inh: inactive; KCNQ2 inh baseline: 3.1

How did COC(=O)Nc1ccc2c(c1)OCO2 do in these assays?
KCNQ2 inh: inactive; KCNQ2 inh baseline: 0.52

Results for Cc1ccc(CN2CCc3[nH]c(=O)[nH]c(=O)c3C2)cc1 ?
KCNQ2 inh: inactive; KCNQ2 inh baseline: -0.98

Results for CC(C)Sc1nc(N2CCOCC2)c2c(c1C#N)CC(C)(C)SC2 ?
KCNQ2 inh: -6.2*; KCNQ2 inh baseline: -0.52*

How did COc1ccccc1-c1cc2nc(C)cc(C)n2n1 do in these assays?
KCNQ2 inh: inactive; KCNQ2 inh baseline: -2.7

Results for O=C(COC(=O)CCOc1ccccc1)NCc1ccco1 ?
KCNQ2 inh: inactive; KCNQ2 inh baseline: 0.69

Results for COc1ccccc1N1C(=O)C=C(Sc2nc(C)cc(C)n2)C1=O ?
KCNQ2 inh: inactive; KCNQ2 inh baseline: -0.1

Results for CCCCN1CC(O)=C(c2nc(-c3ccc(Br)cc3)cs2)C1=N ?
KCNQ2 inh: inactive; KCNQ2 inh baseline: 0.12

How did CCOc1ccc(N(CC(=O)NC(C)CC)S(C)(=O)=O)cc1 (stereo not drawn) do in these assays?
KCNQ2 inh: inactive; KCNQ2 inh baseline: 0.42

How did CN1CCN(c2nc(NCc3ccco3)nc(N)c2[N+](=O)[O-])CC1 do in these assays?
KCNQ2 inh: inactive; KCNQ2 inh baseline: 0.11

What do the screens show for `CCCc1cc(C(=O)Cc2nc3ccccc3s2)c(O)cc1O`?
KCNQ2 inh: inactive; KCNQ2 inh baseline: 1.6

How did Cc1noc(C)c1CSc1nnc(-c2cc(Cl)ccc2Cl)n1N do in these assays?
KCNQ2 inh: inactive; KCNQ2 inh baseline: -0.8

How did COc1ccc(CNC(=O)CN2C(=O)CC(c3ccccc3)=Nc3ccccc32)cc1 do in these assays?
KCNQ2 inh: inactive; KCNQ2 inh baseline: -0.74

Results for CC(C)(C)c1nnc(NC(=S)Nc2ccccc2)s1 ?
KCNQ2 inh: inactive; KCNQ2 inh baseline: 0.43

How did O=C(O)c1cnn(-c2ccccc2)c1-c1ccccc1 do in these assays?
KCNQ2 inh: inactive; KCNQ2 inh baseline: 0.89

How did CCn1c(SCc2ccc(C)cc2)nnc1-c1cnccn1 do in these assays?
KCNQ2 inh: inactive; KCNQ2 inh baseline: 0.01

What do the screens show for `c1ccc(Cn2nnc3c(Nc4ccc5c(c4)OCO5)nc(C4CC4)nc32)cc1`?
KCNQ2 inh: inactive; KCNQ2 inh baseline: -0.36

How did Cc1cc(C)nc(SCc2nnc(SCc3ccc([N+](=O)[O-])cc3)n2Cc2ccco2)n1 do in these assays?
KCNQ2 inh: -5.8*; KCNQ2 inh baseline: 0.42*

What do the screens show for `CCOc1ccnc2c1c(=O)n(Cc1cc(OC)cc(OC)c1)c(=O)n2C`?
KCNQ2 inh: inactive; KCNQ2 inh baseline: -0.75

What do the screens show for `Cc1ccc(F)c(CNC(=O)C2CCC(=O)N(CCCN3CCCC3=O)C2)c1F` (stereo not drawn)?
KCNQ2 inh: inactive; KCNQ2 inh baseline: -1.6

How did CC(C)c1ccc(O)c(C(=O)c2cnn(-c3ccccc3)c2)c1 do in these assays?
KCNQ2 inh: inactive; KCNQ2 inh baseline: 0.08

Results for COc1cccc(-c2nc3cc(C)ccc3o2)c1 ?
KCNQ2 inh: inactive; KCNQ2 inh baseline: 1.5

How did CCn1ncc(Cl)c1C(=O)Nc1ccncc1 do in these assays?
KCNQ2 inh: inactive; KCNQ2 inh baseline: 0.28

What do the screens show for `COc1ccc2c(c1OC)C(=O)N(C(C)C(=O)O)C2=O` (stereo not drawn)?
KCNQ2 inh: inactive; KCNQ2 inh baseline: 0.75

Among those listed so far, these contain a nitro group on carbon.
What do the screens show for `Cc1ccc(C(=O)Nc2cc(C(F)(F)F)ccc2N2CCCCC2)cc1[N+](=O)[O-]`?
KCNQ2 inh: -7.2*; KCNQ2 inh baseline: 0.02*

How did O=C(Nc1nnc(C2=COCCO2)o1)c1ccc([N+](=O)[O-])s1 do in these assays?
KCNQ2 inh: inactive; KCNQ2 inh baseline: 1.5

How did O=C(NCc1ccccc1C(F)(F)F)C12CN(Cc3ccccc3)CC1C(c1ccc([N+](=O)[O-])cc1)=NO2 (stereo not drawn) do in these assays?
KCNQ2 inh: inactive; KCNQ2 inh baseline: 0.09

How did CN1CCN(c2nc(NCc3ccco3)nc(N)c2[N+](=O)[O-])CC1 do in these assays?
KCNQ2 inh: inactive; KCNQ2 inh baseline: 0.11

How did Cc1cc(C)nc(SCc2nnc(SCc3ccc([N+](=O)[O-])cc3)n2Cc2ccco2)n1 do in these assays?
KCNQ2 inh: -5.8*; KCNQ2 inh baseline: 0.42*

Continuation:
How did O=C(/C=C/c1ccccc1)NCCC1=CCCCC1 do in these assays?
KCNQ2 inh: inactive; KCNQ2 inh baseline: -0.72

What do the screens show for `O=C(NC1=NCCS1)c1cc(-c2ccc(F)cc2)nc2ccccc12`?
KCNQ2 inh: inactive; KCNQ2 inh baseline: -0.1

What do the screens show for `COc1ccc(CN(C(=O)c2cc3ccccc3oc2=O)C2CCCC2)cc1`?
KCNQ2 inh: inactive; KCNQ2 inh baseline: -0.24

How did COc1ccc2c(=O)c3c(=O)n(-c4ccccc4)c(-c4ccco4)nc3oc2c1 do in these assays?
KCNQ2 inh: inactive; KCNQ2 inh baseline: 0.87

What do the screens show for `COc1cccc(CNC(=O)CN(C)S(=O)(=O)c2cnc[nH]2)c1`?
KCNQ2 inh: inactive; KCNQ2 inh baseline: 1.8

How did CCC1C(=O)Nc2nc(-c3ccccc3)c(-c3ccccc3)n2N=C1C (stereo not drawn) do in these assays?
KCNQ2 inh: inactive; KCNQ2 inh baseline: 0.52

Results for CC1Cc2ccccc2N1CC(=O)NCc1ccc2c(c1)OCO2 (stereo not drawn) ?
KCNQ2 inh: inactive; KCNQ2 inh baseline: -1.2

How did CCOCc1nnc(NC(=O)C2CCN(C(=O)c3ccco3)CC2)s1 do in these assays?
KCNQ2 inh: inactive; KCNQ2 inh baseline: -1.9
